# Screens as filed in PubChem BioAssay.
# Beta apoptosis = inhibitors of cytokine-induced beta cell apoptosis, primary screen, luminescence | INS-1E cytokine-induced death, ATP luminescence, 48 h; percent of positive-control rescue, neutral wells zero | protection from apoptosis, % (test concentration not listed) | 300,000 tested, 0.8% active | AID 435005, 2010;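 active means all replicates at 75% or more, or half of them and the mean; inconclusive means half reach 75% but not the mean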;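 further: 0% = cytokine-treated negative control wells and 100% = positive control rescue; higher means more ATP so stronger rescue from cytokine killing; wells of about 40 µL received 100 nL stock; the first replicate is given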
# T cruzi inh = inhibitors of intracellular T. cruzi growth, primary screen, luminescence, NIH3T3 host cells. T. cruzi beta-gal in NIH3T3, 90 h. inhibition, % (concentration not given with the values). 300,000 tested, 1.4% active;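 active means mean inhibition across valid replicates above about 55%, limit read from the data; inconclusive means mean below that limit but half or more replicates reach it; inactive means mean below it, under half of replicates reach it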;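 further: signal also drops with host cell toxicity which is not excluded here; 0% = plate median of DMSO wells and 100% = zero luminescence signal; higher percent means less beta-gal luminescence so fewer parasites; stock transfer was 50 nL into about 50 µL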
# Calb FLC = C. albicans growth inhibition with fluconazole, primary screen, CaCi-2 strain, Alamar Blue fluorescence. AID 1979, 2009. 300,000 tested, 0.57% active. growth inhibition, % (test concentration not listed). C. albicans CaCi-2 (fluconazole-resistant clinical isolate) + fluconazole, 48 h;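 active means most replicates above 75%; inconclusive means exactly half above 75%; inactive means most below 75%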;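 further: all wells also contain fluconazole at 8 µg/ml as a sub-toxic cotreatment; 0% = median of DMSO wells and 100% = median of geldanamycin control wells; wells of about 8 µL received 7.5 nL stock; the first replicate is given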
# Beta2AR agonist = beta2AR agonists driving receptor internalization, primary screen, cell-based, FAP fluorogen, flow cytometry; Am2.2-beta2AR cells; reference of the scale not given here; response, % (test concentration not listed); 340,000 tested, 0.43% active; AID 504454, 2011;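 active means response above a set limit, near 3 SD of response in nonfluorescent compounds, cut at about 42% in these data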;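 further: stock transfer was 100 nL into about 11 µL; a reference agonist was the positive control; negative values mostly stem from fluorescent compounds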
# Bfl-1 A1 inh = caspase 3/7 activation in MEF A1-2A-BIM cells, primary screen, A1 inhibitor project, cell-based, luminescence, HTS; AID 2462, 2010; 330,000 tested, 0.066% active; Caspase-Glo 3/7 luminescence, 3 h; percent of clofoctol response, vehicle zero; caspase activation, % (test concentration not listed);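 active means over half of replicate activation scores above 10%, or exactly half above 10 with the replicate mean above 10; inconclusive means replicate mean below 10 yet half the replicates above 10; inactive means over half of replicates below 10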;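 further: wells of about 30 µL received 50 nL stock; many hits fall short of the cut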
# RanGTP-Imp inh = inhibitors of RanGTP-importin-beta interaction, primary screen, biochemical, FRET, CFP-Ran, YFP-importin-beta, homogeneous | Ran GTPase (GTP-bound) - importin-beta complex | inhibition, % (no concentration beside the values) | 300,000 tested, 1.1% active | cell-free CFP-Ran/YFP-importin-beta FRET ratio;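 active means most replicates above 15%; inconclusive means exactly half above 15%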;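 further: 0% = DMSO wells and 100% = Ran loaded with GDP instead of GTP; wells of about 40 µL received 100 nL stock; the first replicate is given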
# UCH37 inh = inhibitors of human UCH37 deubiquitinase, primary screen, biochemical, Ub-AMC cleavage, fluorescence. Ubiquitin carboxyl-terminal hydrolase isozyme L5 (Homo sapiens), Q9Y5K5. purified proteasome/UCH37. inhibition, % (concentration not given with the values). 330,000 tested, 0.33% active. AID 588478, 2011;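 active means mean of two replicates above 20%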;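 further: 0% = compound-free wells with enzyme and 100% = wells lacking proteasome; stock transfer was 100 nL into about 20 µL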
#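 system = Proteasome-associated human UCH37 deubiquitinase | amount = 0.15 nM proteasome as dispensed | medium = pH 7.4 Tris-HCl (50 mM) with ovalbumin, ATP-MgCl2, DTT | incubation = 30 min preincubation with enzyme, 25 min cleavage at room temperature | detection = AMC fluorescence 355/460 nm | read-out basis = percent inhibition | controls = no-proteasome and no-compound wells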
# LANA-H2A inh = blockers of LANA interaction with H2A/H2B – biochemical, FP readout, HTS, primary screen. Protein LANA1 (Human herpesvirus 8 type P (isolate GK18)), Q9QR71. cell-free LANA-H2A/H2B peptide, fluorescence polarization. inhibition, % (concentration not given with the values). 320,000 tested, 0.6% active. AID 2629, 2010; in the data active means inhibition mostly above about 10%, no sharp cut-off; inactive means mostly below about 6.7%;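 further: stock transfer was 7.5 nL into about 10 µL; 0% = median of vehicle wells and 100% = median of positive control wells; one replicate is shown; the record names a cut of 25% in any replicate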
# Target sequence (Q9QR71 whole entry, looked up): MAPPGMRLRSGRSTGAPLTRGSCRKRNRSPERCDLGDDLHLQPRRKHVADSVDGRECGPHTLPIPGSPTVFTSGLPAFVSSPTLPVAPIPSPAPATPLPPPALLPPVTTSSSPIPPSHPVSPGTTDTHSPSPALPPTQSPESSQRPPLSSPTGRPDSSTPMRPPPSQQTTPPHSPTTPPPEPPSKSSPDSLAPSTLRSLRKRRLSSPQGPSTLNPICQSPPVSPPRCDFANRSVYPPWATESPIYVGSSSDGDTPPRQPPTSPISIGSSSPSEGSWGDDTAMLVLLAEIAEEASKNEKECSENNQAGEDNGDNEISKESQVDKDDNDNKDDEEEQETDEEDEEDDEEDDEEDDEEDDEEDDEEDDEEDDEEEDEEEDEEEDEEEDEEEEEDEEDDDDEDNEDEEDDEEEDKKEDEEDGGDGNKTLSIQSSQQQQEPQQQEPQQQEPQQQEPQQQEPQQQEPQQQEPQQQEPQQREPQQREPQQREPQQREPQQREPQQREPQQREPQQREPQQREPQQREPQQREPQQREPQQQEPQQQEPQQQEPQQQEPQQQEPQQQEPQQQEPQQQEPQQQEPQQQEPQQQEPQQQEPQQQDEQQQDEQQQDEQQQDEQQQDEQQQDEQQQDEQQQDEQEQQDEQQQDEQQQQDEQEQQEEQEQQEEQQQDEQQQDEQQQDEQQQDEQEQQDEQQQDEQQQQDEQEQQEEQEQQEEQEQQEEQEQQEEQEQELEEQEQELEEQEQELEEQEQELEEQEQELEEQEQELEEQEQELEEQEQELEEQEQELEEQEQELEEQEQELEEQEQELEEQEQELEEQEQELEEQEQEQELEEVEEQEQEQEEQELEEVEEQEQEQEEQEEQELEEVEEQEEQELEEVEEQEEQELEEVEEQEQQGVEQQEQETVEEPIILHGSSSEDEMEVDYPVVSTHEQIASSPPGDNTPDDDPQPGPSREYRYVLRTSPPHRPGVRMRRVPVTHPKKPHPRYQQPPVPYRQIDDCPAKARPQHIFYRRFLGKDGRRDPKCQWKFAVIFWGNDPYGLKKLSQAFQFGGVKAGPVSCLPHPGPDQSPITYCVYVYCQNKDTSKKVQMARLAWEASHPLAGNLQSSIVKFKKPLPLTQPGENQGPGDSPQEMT
# Starred values were filed as active, the others as inactive; i = inactive; ? = inconclusive; . = no result given.
SMILES,Beta apoptosis,T cruzi inh,Calb FLC,Beta2AR agonist,Bfl-1 A1 inh,RanGTP-Imp inh,UCH37 inh,LANA-H2A inh
COc1cc(C(=O)Nc2ccc3c(c2)OCCO3)ccc1OC(F)F,-3.6,-15.3,-2.7,1.0,-7.3,7.5,2.5,4.7
CSc1nc2ccsc2c(=O)n1-c1ccccn1,-4.6,-4.4,-3.0,-0.4,-0.2,-1.4,2.9,-0.8
O=C(O)CCc1ccc(-c2ccc(Cl)cc2)n1CC(=O)O,-5.7,-14.9,1.5,-3.1,-0.5,-1.4,-3.9,7.2
COc1ccc(C)cc1NC(=O)n1ncc2cc(Cl)ccc21,3.2,5.0,-5.2,-6.4,-0.4,-1.5,1.0,-1.4
CCN(c1cccc(C)c1)S(=O)(=O)c1ccc(-n2cccn2)cc1,-4.4,10.0,12.9,-33.7,-0.9,2.0,0.2,3.4
COc1ccc(/C(O)=C/c2nc3ccccc3n(-c3ccccc3)c2=O)cc1,5.3,7.0,-2.4,-215.8,0.0,46.7*,2.7,4.0
CC1=CC(c2ccc(Cl)cc2)n2nc(N3C(=O)CCC3=O)nc2N1 (configuration not stated),-7.1,-0.1,-1.9,-2.9,0.7,-3.6,i,1.5
Cc1ccc(N2C(=O)N(CC(=O)Nc3cccc(Cl)c3)C(=O)C2C)cc1 (configuration not stated),-4.3,-6.9,-3.1,2.4,-0.7,0.1,5.3,0.2
COc1ccc(/C=C/C(=O)N2CCCc3ccccc32)c(OC)c1,0.9,16.0,4.7,-0.9,-0.8,-2.1,4.5,-1.6
COc1nc(NCC(C)C)nc(Oc2ccc(OCc3ccccc3)nn2)n1,3.7,20.5,-0.7,0.6,-0.6,-2.3,0.4,2.6
COc1ccc(S(=O)(=O)N2CCCC2)c(C)c1C,-6.2,.,.,-1.2,1.0,.,1.8,6.4
CCOc1ccc(NC(=S)NCCCc2ccccc2)cc1,4.2,2.2,-0.7,0.3,0.2,3.4,1.5,-5.7
Cc1cc(C)n(-c2ccc(C(=O)C(C#N)c3nc4ccccc4n3C)cc2)n1 (configuration not stated),11.2,-4.0,-6.7,-14.3,-3.7,1.2,-25.2,-2.0
Cc1nnc(NC(=O)CSc2nnc(CNC(=O)c3ccc(F)cc3)o2)s1,-0.9,-11.4,1.0,6.1,0.6,6.2,3.4,-3.6
Cc1ccc(C(=O)N/C(=C/c2cccs2)C(=O)NCCc2c[nH]c3ccccc23)cc1,-1.7,13.0,33.9,0.1,0.8,3.5,3.6,0.8
Cc1ccc(OCC(=O)Nc2ccc(C(=O)O)cc2NC(=O)COc2ccc(C)c(C)c2)cc1C,1.9,-9.1,13.6,1.2,-0.6,1.5,1.7,2.8
O=C(NCCCN1CCN(c2ccc(F)cc2)CC1)C1CCCN(c2ncnc3c2nc2n3CCCCC2)C1 (configuration not stated),6.4,21.0,-9.7,-9.6,0.0,-0.4,4.9,7.8
CC(=O)N1c2ccc(S(=O)(=O)N3CCCC(C(=O)N4CCCCC4)C3)cc2CC1C (configuration not stated),2.4,-6.7,-10.6,-11.5,0.0,4.3,6.7,-5.3
O=C(COc1ccc(Br)cc1)Nc1nnc(C2CC2)s1,-0.7,.,.,-3.8,-0.5,.,1.7,-1.2
Cc1ccc(N2CN(Cc3cccnc3)CNC2=S)cc1,-3.0,?,5.6,8.8,-0.8,-2.0,3.1,0.3
CN(C)CCN(C(=O)c1ccc(N2C(=O)CCC2=O)cc1)c1nc2cc3c(cc2s1)OCO3,0.6,56.7*,-5.6,-5.3,1.1,?,5.3,-6.3
CC1CCN(C(=S)NC(=O)c2cccs2)CC1,-0.6,-23.1,18.2,2.8,-1.0,1.0,1.5,0.6
CC1(C)CC(=O)C=C(Nc2ccc(F)cc2F)C1,.,-12.2,0.7,8.6,-0.7,35.2*,0.8,0.3
COc1ccc(NS(=O)(=O)c2ccc(C(=O)N(C)Cc3ccc(C)o3)cc2)cc1,6.0,.,.,3.9,0.6,.,1.3,-2.3
CN(C(=O)c1cc2n(n1)C(C(F)(F)F)CC(c1ccco1)N2)c1ccccc1 (configuration not stated),3.0,-12.6,18.2,-3.6,-0.2,?,2.3,0.5
CC(C)CN1C(=O)c2ccc(NC(=O)c3cccs3)cc2C1=O,8.5,4.8,20.6,-5.5,0.0,-2.1,-83.2,-2.4
COCCNC(=O)c1cc(-c2cccc(OC)c2)on1,-3.2,3.2,3.4,0.6,-2.6,-2.1,3.3,-3.8
C=CCn1c(N)c(C(=O)NCCC2=CCCCC2)sc1=S,-5.0,?,-26.5,9.4,1.8,0.0,5.1,1.0
O=S1(=O)c2cccc3cccc(c23)N1CCBr,-6.4,1.7,20.3,0.5,-0.8,0.3,-34.5,-5.7
CC1=CC(C)(C)N(C(=O)c2ccc(F)cc2)c2cc3c(cc21)OCO3,-7.0,15.2,65.1,3.2,1.1,-1.4,4.2,0.7
O=C(Nc1nnc(COc2ccc(F)cc2)s1)Nc1ccccc1F,-3.8,17.2,1.5,-0.1,-0.4,5.4,0.2,-3.4
CN(C)c1ccc(/C=C2\NC(=S)N(Cc3ccccc3)C2=O)cc1,-5.2,3.4,-12.0,-409.5,0.5,-69.8,-5.9,-6.2
O=C(NC1CCCCC1)C(c1ccco1)N(C(=O)c1csnn1)c1ccccc1 (configuration not stated),-8.6,1.0,-14.2,0.2,0.1,0.1,0.4,2.2
COCCCNC(=O)c1cc2cc(Br)ccc2oc1=O,-1.4,.,-3.3,-5.0,0.8,.,0.2,-1.5
Cn1cc(C(=O)N2CCN(c3ccccn3)CC2)c(=O)c2cc(S(=O)(=O)N3CCOCC3)ccc21,-7.7,.,.,-5.2,-1.0,.,5.1,6.5
CCn1c(SCC(=O)Nc2nccs2)nnc1-c1cc2cccc(OC)c2o1,.,5.9,-3.1,7.3,.,0.2,-2.6,.
CC(=O)c1ccc(CCCC(=O)O)cc1,-0.5,-3.2,-0.8,0.6,0.4,-0.1,2.9,0.4
Nc1nc2c(Cl)ccc(Cl)c2s1,-8.2,-13.6,5.4,-2.6,-0.1,1.8,6.4,-1.4
CC(=O)Nc1ccc(S(=O)(=O)NC2(C(F)(F)F)NC(=O)N(c3ccc(C)cc3)C2=O)cc1 (configuration not stated),.,-8.8,-11.8,5.5,0.1,4.0,3.3,0.5
CCCCCCCC1c2c(c(C)c(C)oc2=O)Oc2c(C)c(C)oc(=O)c21,3.9,.,.,1.9,0.5,.,-7.3,-5.0
COc1ccccc1-n1c(SCC(N)=O)nc2c(c1=O)SCC2,.,-16.3,-5.9,0.2,.,?,11.1,.
Cn1c(CCN2CCN(c3ccccn3)CC2)nc2cc(NC(=O)COc3ccccc3)ccc21,-3.3,10.8,55.2,1.6,-1.0,2.3,3.6,1.8
Cc1cc(C(F)(F)F)nn1CC(=O)NCc1cccs1,-0.6,-19.7,-1.3,-3.8,0.4,0.0,1.8,0.4
CCc1ccc(NC(=S)NC2CCN(Cc3ccccc3)CC2)cc1,-0.1,25.9,2.9,0.4,0.5,0.2,5.8,-2.3
O=[N+]([O-])c1ccc(-c2nnc(S)n2-c2ccccc2)cc1,.,2.6,1.0,.,0.1,9.7,.,-1.8
COc1ccc(-c2ccnc(SCC(=O)N3CCOCC3)n2)cc1,-3.6,-2.2,19.7,7.5,0.1,-0.2,-6.4,-0.8
Cc1c(Cl)c([N+](=O)[O-])nn1CC(=O)NCc1ccco1,-10.4,-9.4,-2.7,8.3,0.9,0.1,-2.9,-3.2
Cc1nc(CCNC(=O)c2ccccc2)cs1,-4.9,-10.0,?,6.9,0.0,7.5,0.6,-7.5
O=C(NCCc1c[nH]c2ccccc12)c1cnccn1,2.3,-7.3,-3.6,-0.7,0.2,0.2,2.4,3.2
COc1ccc2oc(C(=O)Nc3ccc(S(=O)(=O)N(C)C4CCN(C)CC4)cc3)c(C)c2c1,23.8,60.0*,9.6,13.3,-0.4,1.1,-19.4,-2.6
O=[N+]([O-])c1cccc(-c2c(-c3ccccc3)ncc3cc(F)ccc23)c1,14.9,.,.,0.8,-2.5,.,0.5,-3.1
Cc1cccc(Nc2nc3c(S(=O)(=O)c4ccccc4)nnn3c3ccccc23)c1,8.9,-5.5,3.6,0.9,7.4*,2.6,-484.0,0.0
COCCn1c(C)cc(C(=O)CSc2nc(C)c(C)c(C)n2)c1C,7.1,-16.0,0.9,-0.8,0.1,4.7,5.3,-2.6
CCc1ccc(/C=N/NC(=O)c2cc(-c3ccncc3)nc3ccccc23)s1,.,-21.8,-0.3,23.4,0.4,-1.8,.,4.3
CC(=O)c1c(N2CCN(C(=O)C3CCCO3)CC2)nc(=S)n(-c2ccccc2)c1C (configuration not stated),-3.9,-13.2,-8.3,-9.2,0.4,-1.4,4.2,1.6
O=C(CN1CCN(c2ccccn2)CC1)Nc1ccc(OCc2ccccc2)cc1,-3.2,10.2,-21.0,-17.8,-0.5,0.3,-0.7,-1.3
CCn1cc(/C=N\NC(=O)c2ccccc2Cl)cn1,-2.8,14.4,2.6,0.7,0.2,3.6,.,-2.1
COc1ccccc1Oc1coc2cc(OCC(N)=O)ccc2c1=O,-4.1,-0.3,6.3,0.9,1.3,-1.8,1.9,-0.7
O=C(CN(C(=O)c1ccc2c(c1)OCCO2)c1ccccc1)NCC1CCCO1 (configuration not stated),-3.7,-6.0,.,-6.9,-0.2,5.4,3.4,-1.1
CCCCOC(=O)Nc1nnc(CC(=O)NCc2ccccc2)s1,.,-7.6,-1.1,-1.0,0.6,-2.6,4.4,0.4

# More entries:
SMILES,Beta apoptosis,T cruzi inh,Calb FLC,Beta2AR agonist,Bfl-1 A1 inh,RanGTP-Imp inh,UCH37 inh,LANA-H2A inh
COc1ccc(C(=O)N=C2SC3CS(=O)(=O)CC3N2Cc2ccccc2)cc1OC (configuration not stated),.,9.5,-8.4,3.4,-0.4,1.0,-2.4,-6.6
COc1ccccc1C(=O)NCCC(=O)N1CCN(c2ccccc2O)CC1,-1.1,-1.9,0.3,-8.6,0.0,1.3,-0.7,0.8
CCCC(=O)OCC(=O)c1[nH]c(C)c(C(C)=O)c1C,-6.1,-4.9,14.7,1.4,0.4,-0.9,1.6,-2.7
COc1ccc(NCC(=O)N/N=C2\CCc3ccccc32)cc1,8.4,19.0,5.2,19.8,-0.4,-0.3,.,-2.1
CC1CCCN(S(=O)(=O)c2cccc(C(=O)OCC(=O)N(C)Cc3c(F)cccc3Cl)c2)C1 (configuration not stated),3.7,.,.,7.1,0.5,.,2.1,-2.8
